KCNQ2 enhance = KCNQ2 (rat) channel potentiation. CHO-K1 KCNQ2, FluxOR thallium flux fluorescence; stronger effect = higher value. B-score at 10 µM. 310,000 compounds, 0.54% hits;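 active means fluorescence ratio B-score at least 3 SD of library B-scores, with initial fluorescence B-score within 3 SD, cut at about 5.3 in these data; same plate scores as AID 2156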;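 further: B-score of peak minus minimum over baseline fluorescence ratio after K+ and Tl+ stimulus; positive B-score means potentiation of KCNQ2 with more thallium influx and brighter signal; only the inactives scoring about 0 or higher are listed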
Target sequence (O88943 whole entry, looked up): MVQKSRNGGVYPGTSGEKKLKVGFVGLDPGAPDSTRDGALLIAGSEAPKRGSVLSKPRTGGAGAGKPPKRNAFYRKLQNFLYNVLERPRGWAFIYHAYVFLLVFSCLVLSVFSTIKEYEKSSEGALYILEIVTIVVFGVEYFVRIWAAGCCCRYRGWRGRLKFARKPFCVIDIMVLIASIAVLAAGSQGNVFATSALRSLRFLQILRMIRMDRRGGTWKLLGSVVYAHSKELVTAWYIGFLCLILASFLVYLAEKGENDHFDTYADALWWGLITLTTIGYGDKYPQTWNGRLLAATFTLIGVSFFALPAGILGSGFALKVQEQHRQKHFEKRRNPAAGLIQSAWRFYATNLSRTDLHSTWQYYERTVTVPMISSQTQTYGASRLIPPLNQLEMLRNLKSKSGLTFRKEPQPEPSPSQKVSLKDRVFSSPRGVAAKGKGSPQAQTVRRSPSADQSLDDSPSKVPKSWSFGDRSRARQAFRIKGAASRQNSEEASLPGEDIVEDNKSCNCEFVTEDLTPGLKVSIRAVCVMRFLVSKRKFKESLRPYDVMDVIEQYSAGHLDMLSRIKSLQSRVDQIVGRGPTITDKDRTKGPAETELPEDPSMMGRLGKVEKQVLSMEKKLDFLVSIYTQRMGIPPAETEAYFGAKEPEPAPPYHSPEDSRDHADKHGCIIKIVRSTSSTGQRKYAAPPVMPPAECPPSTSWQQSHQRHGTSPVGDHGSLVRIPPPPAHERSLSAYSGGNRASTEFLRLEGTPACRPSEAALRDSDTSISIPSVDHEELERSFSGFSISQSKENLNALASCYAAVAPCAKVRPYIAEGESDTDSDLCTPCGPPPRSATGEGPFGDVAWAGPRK
KCNQ2 enhance baseline = also measured in KCNQ2 enhance; calls as there; B-score; compound at 10 µM; measured here: initial fluorescence intensity artifact check;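 brightness before thallium and not channel activity; 0 = typical well and far values either way flag optical interference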
The depositor's hits bear a star. These rows are one share of the data. The share of hits here may be higher or lower than overall.

SMILES	KCNQ2 enhance	KCNQ2 enhance baseline
COc1ccc(CCN2C(=S)N(c3ccc(Cl)cc3)C(=O)C2CC(N)=O)cc1OC (stereo not given)	0.75	-0.06
O=C(N/N=C/c1ccc(Cl)s1)C(O)c1ccccc1 (stereo not given)	2.16	1.37
CCOc1ccc(N2CC(C(=O)Nc3nnc(C4CCCCC4)s3)CC2=O)cc1 (stereo not given)	0.26	0.27
O=C(Cc1cccc(C(F)(F)F)c1)OCN1C(=O)c2ccccc2C1=O	0.41	0.04
Cn1c(=NC(=O)c2cnccn2)sc2ccccc21	1.14	-0.39
O=C(OCc1c(Cl)nc2sccn12)c1cc2c(s1)CCCC2	0.06	-2.63
O=C(CSc1nnc2ccccn12)NCc1ccc2c(c1)OCO2	0.09	1.68
CCOC(=O)N1CCN(C(=O)CCn2c(=S)[nH]c3cc(OCC)c(OCC)cc3c2=O)CC1	1.17	-0.9
COc1cc(OC)cc(OCC(O)Cn2ccnc2C)c1 (stereo not given)	0.24	-0.06
CC(=O)c1c(O)cc(=O)oc1-c1ccc(C)cc1	0.52	0
CSc1ccc(C(=O)C2CCCN(C(=O)c3cccnc3SC)C2)cc1 (stereo not given)	2.41	1.42
COC(=O)CSc1nc(C)cc(C(F)(F)F)c1C#N	0.76	0.01
COc1cc(C(=O)N(CCN(C)C)CC2CCCN(Cc3ccccc3F)C2)ccc1C (stereo not given)	0.06	0.87
COc1cccc(NC(=O)CS(=O)(=O)c2cn(CC(=O)N3CCOCC3)c3ccccc23)c1	1.58	0.05
COc1ccc(-n2c(C)cc(/C=C3\C(=N)N4N=C(CC(=O)N5CCOCC5)SC4=NC3=O)c2C)c(OC)c1	0.65	3.2
COC(=O)c1ccc(CNC(=O)COC(=O)CCN2C(=O)C3CC=CCC3C2=O)cc1 (stereo not given)	1.71	0.12
COCC(=O)n1nc(-c2ccc(Cl)cc2)nc1NCc1ccc(F)cc1	0.14	1.66
CN(C)CCCN(Cc1ccccc1)C(=S)Nc1ccc(F)c(Cl)c1	0.75	-1.45
CCOC(=O)N1CCC(c2nc(C)sc2C(=O)O)CC1	0.48	0.71
Cc1ccc(NCc2nnc(SCC(N)=O)n2CCc2ccccc2)cc1	0.01	-2.75
COc1ccc(S(=O)(=O)N2CCOCC2)cc1C(=O)Nc1ccon1	0.05	1.42
COC(=O)C(Cc1ccc(O)cc1)NC(=O)CCNC(=O)c1ccco1 (stereo not given)	0.98	0.01
O=C(Nc1ccc2c(c1)OCCO2)NC12CC3CC(CC(C3)C1)C2	4.58	1.26
COCCNC(=S)N=Nc1c(O)[nH]c2c(C)cc(C)cc12	0.68	-1.22
COc1cccc(COC(=O)CCNC(=O)c2ccc(Br)cc2)c1OC	0.36	-1.46
(more compounds)
SMILES	KCNQ2 enhance	KCNQ2 enhance baseline
COC(=O)CSc1nc(N)nc(C)c1Br	0.99	-1.38
COc1cccc(-c2ccc(=O)n(CC(=O)Nc3ccc(S(=O)(=O)NCC(C)C)cc3)n2)c1	1.1	0.61
NC(=O)CNC(=O)[C@@H]1CC2(CC(c3ccc(Cl)cc3)=NO2)CN1C(=O)c1ccc(Br)cc1 (stereo not given in full)	3.33	1.19
O=C(Nc1ccccc1-c1nnn(CC(=O)N2CCc3ccccc3C2)n1)C1CCC1	0.12	-0.06
Cc1c(-c2ccccc2)[n+](=O)c2c(n1[O-])CCCCC2	0.59	-0.66
CN(C)CCCN(C(=O)c1ccc(S(=O)(=O)N2CCc3ccccc3C2)cc1)c1nc2ccc(F)cc2s1	0.85	-0.04
COc1ccc(CN(C(=O)/C=C/c2ccccc2Cl)C2CCS(=O)(=O)C2)cc1 (stereo not given)	0.16	-2.43
O=C(C1CCCN(Cc2cccc(F)c2)C1)N1CCCCC1 (stereo not given)	0.02	1.17
Cc1c(Cl)cccc1N1CC(C)(C)C1=O	0.06	1.87
COc1cc(NC(=S)Nc2ccc(OC(F)F)cc2)cc(OC)c1	0.21	-1.65
Cn1nc(CC(=O)NCCN2C(=O)CSC2=O)c2ccccc2c1=O	0.53	0.5
Nc1nnn(CC(=O)N/N=C/c2cn[nH]c2-c2ccccc2)n1	1.28	0.39
O=C(N/N=C/c1cccc([N+](=O)[O-])c1)c1ccccc1-n1cccc1	1.53	0.46
CCN(CC)S(=O)(=O)c1ccc2oc(C(=O)NC(C)C)c(C)c2c1	1.24	-0.01
CCN1C(=O)[C@H]2[C@@H](c3ccc(-c4ccccc4)cc3)N[C@@](Cc3ccccc3)(C(=O)OC)[C@H]2C1=O	0.04	-1.4
COc1ccc(S(=O)(=O)N2CCCCCC2)cc1NC(=O)Cc1cc(OC)c(OC)c(OC)c1	1.18	-1.67
COCCCNC(=O)c1cc(-c2cccnc2)nc2ccc(S(=O)(=O)N3CCCCCC3)cc12	0.27	-1.2
CC(C)C(O)(C#CCN1CCCCC1)C(C)C	1.72	-0.06
Cc1ccccc1C(=O)Nc1ccc(C(=O)NNC(=O)CCCOc2ccc(Cl)cc2Cl)cc1	0.02	0.01
CCCCn1c(N)c(N(CCOC)C(=O)c2cccc(N3C(=O)c4ccccc4C3=O)c2)c(=O)[nH]c1=O	0.83	0.41
COc1ccccc1NC(=O)CSc1nc(=O)n(CCN(C)C)c2c1CCCC2	0.12	-0.73
CN1C(=O)[C@H]2[C@@H](c3ccc(F)cc3)N3C(=O)c4ccccc4NC(=O)[C@@]3(C)[C@H]2C1=O	0.22	0.18
CCC(=O)N1CCc2cc(S(=O)(=O)CCC(=O)Nc3ccc(CC)cc3)ccc21	3.44	-0.15
Cc1nc(N2CCOCC2)nc(N2CCN(c3ccccc3)CC2)c1[N+](=O)[O-]	0.41	0.01
Cc1oc(C(=O)O)cc1COc1cccc2cccnc12	0.13	1.02

Structures shown so far with a COOH group (two):
SMILES	KCNQ2 enhance	KCNQ2 enhance baseline
CCOC(=O)N1CCC(c2nc(C)sc2C(=O)O)CC1	0.48	0.71
Cc1oc(C(=O)O)cc1COc1cccc2cccnc12	0.13	1.02

Grouped by structure: the compounds so far with a CF3 group.
SMILES	KCNQ2 enhance	KCNQ2 enhance baseline
O=C(Cc1cccc(C(F)(F)F)c1)OCN1C(=O)c2ccccc2C1=O	0.41	0.04
COC(=O)CSc1nc(C)cc(C(F)(F)F)c1C#N	0.76	0.01

More entries
SMILES	KCNQ2 enhance	KCNQ2 enhance baseline
Cc1nc(/N=C\N(C)C)sc1C(=O)Nc1ccccc1	0.54	-1.63
NS(=O)(=O)c1ccc(NNC(=O)c2ccccc2C(=O)O)cc1	0.01	0.65
Cc1ccccc1NC(=O)Cn1cc(C(=O)C2CC2)c2ccccc21	0.75	-0.05
CC1=C(C)CC(C(=O)NC2CCCC2)C(C(=O)O)C1 (stereo not given)	2.01	0.71
O=Cc1ccc(-c2nc3ccccc3s2)o1	0.09	0.88
O=C(Nc1ccc(F)c([N+](=O)[O-])c1)C1CC(=O)N(Cc2ccccc2)C1 (stereo not given)	0.52	-2.34
Nc1ncnc(Nc2ccccn2)c1[N+](=O)[O-]	1.92	0.56
COC(=O)C1=NN(c2cccc(C)c2)C2C(=O)N(c3ccccc3OC)C(=O)C12 (stereo not given)	0.25	-0.89
COc1ccc(CN2CCN(C(=O)c3cccnc3)CC2)cc1Br	2.75	-0.06
Cc1ccc(C(C(=O)NC2CCCCC2)N(CCC(C)C)C(=O)CNC(=O)c2ccco2)o1 (stereo not given)	0.07	-1.11
Cc1cc(NC(=O)CN2CCCC(C)C2)no1 (stereo not given)	2.46	-2.49
CN(C)S(=O)(=O)N1CCC(Oc2ccc(C(=O)N3CCCCCCC3)cc2)CC1	1.15	0.57
CC(=O)c1c(C(=O)O)[nH]c(C(=O)O)c1C	0.49	1.77
CCCN1CNC(=S)N(Cc2ccccc2)C1	1.22	-2.38
CCn1cc(C(=O)C(F)(F)F)c2ccccc21	0.51	1.3
Cc1ccc2c(CC(=O)O)coc2c1	1.39	1.17
CCC1(C)N(O)C(C)(C)C(c2ccc(OC)cc2)=[N+]1[O-] (stereo not given)	0.52	0.25
COCCCNC(=O)CNC(=S)N(Cc1ccccc1)Cc1cccnc1	1.62	0.08
CCCCSCCCNC(=O)c1cn(C)c2ccc(S(=O)(=O)N3CCCC3)cc2c1=O	0.18	1
COC(=O)[C@@H](Cc1ccccc1)NC(=O)[C@H]1CCC(=O)N1C(=O)OCc1ccccc1	0.3	-0.62
COc1ccc(N2C(=O)C3CCCN3C2=O)cc1 (stereo not given)	0.01	-0.45
COC(=O)c1sc(NC(=O)c2c(OC)cccc2OC)c(C#N)c1C	1.19	3.17
Brc1ccc(-c2ccc(/C=N/Nc3nc(N4CCOCC4)nc(N4CCOCC4)n3)o2)cc1	0.26	-0.86
CCOc1ccc(NS(=O)(=O)CC23CCC(CC2=O)C3(C)C)cc1 (stereo not given)	0.14	1.12
CCOC(=O)C[C@H]1c2ccc(C(F)(F)F)cc2S(=O)(=O)N1C(C)C	0.29	-2.32
The list goes on.
SMILES	KCNQ2 enhance	KCNQ2 enhance baseline
COc1cc(C2C(C#N)=C(N)N(N(C)C)C3=C2C(=O)CCC3)ccc1O (stereo not given)	0.02	0.01
CCOc1ccc(C(C)=O)cc1Cn1c(=O)oc2ccccc21	0.76	-1.85
C=CCn1c(Cc2nc3ccc(Cl)cc3[nH]2)n[nH]c1=S	1.6	-0.17
COC(=O)c1ccc(S(=O)(=O)N2CCCN(Cc3cccc(Br)c3F)CC2)n1C	0.21	0.67
N#CCC(=O)Nc1ccc(C(=O)NCC(c2ccco2)N2CCCCC2)cc1 (stereo not given)	0.4	3.45
CCOc1ccc(S(=O)(=O)Nc2cc(Cl)ccc2O)cc1	0.61	0.81
CN1CC(=O)N/C1=N\C(=O)Nc1ccc(O)cc1	1.02	0.97
CC(C)(C)C(=O)N1CCN(c2ccc([N+](=O)[O-])cc2-n2cccc2)CC1	0.77	-1.3
CSc1nc(-c2ccco2)nn1C(=O)Cc1ccccc1	1.56	-0.9
COc1ccccc1-c1cc(-c2ccccc2)nc(=O)[nH]1	0.79	-0.77
CC(=O)Nc1ccc(N2CCCCC2)cc1	0.91	-0.01
CCCCc1[nH]nc2c1C1(C(=O)N(CC)c3ccccc31)C(C#N)=C(N)O2 (stereo not given)	1.56	-3.18
Cc1cccc(C)c1OCC(=O)Nc1ccc2c(c1)C(=O)NC2=O	0.35	-1.78
CCOc1ccccc1N(CC(=O)O)S(=O)(=O)c1ccc(C)cc1	1.57	0.81
CCOc1ccccc1N(CC(=O)NCc1ccncc1)S(=O)(=O)c1ccccc1	0.43	1.43
O=C(/C=C/c1c(F)cccc1Cl)NCc1ccc2c(c1)OCO2	1.04	0.21
CNc1nc(Sc2cccc(C(F)(F)F)c2)cc(C(F)(F)F)n1	0.99	-1.84
CCOc1ccc(OC(=O)C(CCS(C)(=O)=O)N2C(=O)c3ccccc3C2=O)cc1 (stereo not given)	0.43	0.93
CCOC(=O)C(=O)N/N=C(/c1ccccc1)c1ccc(OC)cc1	1.62	-0.43
C=CCn1c(SCC(=O)NCc2ccco2)nc2sc3c(c2c1=O)CCC3	0.25	-0.18
CC(NC(=O)c1ccc(N(C)C)c([N+](=O)[O-])c1)c1ccc(-n2ccnc2)cc1 (stereo not given)	1.37	-0.87
CC(C)=CCN1CCN(Cc2cccn2-c2nccs2)CC1CCO (stereo not given)	0.45	2.16
COCC(C)NC(=S)NC(=O)c1cc(S(=O)(=O)N2CCOCC2)ccc1C (stereo not given)	0.34	-0.83
O=C(NCCN1CCOCC1)c1c(Cl)cccc1Cl	0.07	-2.43
Cc1nn2c3ccccc3n(C)c2nc1=O	1.2	0.79
Continued.
SMILES	KCNQ2 enhance	KCNQ2 enhance baseline
CC(C)Cc1cc(CN2CCCC(CO)(Cc3cccc(Cl)c3)C2)[nH]n1 (stereo not given)	0.12	-0.25
Cc1ccc(-c2nnc(SCC(=O)N3CCCc4ccccc43)n2N)cc1	0.02	-1.34
Cc1cccc(C(=O)C2CCN(S(=O)(=O)c3ccc(C(=O)O)cc3)CC2)c1	1.15	-0.02
Cc1ccc(S(=O)(=O)N(C)C)cc1NC(=O)CN1C(=O)NC(Cc2c[nH]c3ccccc23)C1=O (stereo not given)	1.8	0.71
COc1ccc(Cl)cc1N(C(=O)c1ccco1)C(C(=O)NC1CCCC1)c1ccncc1 (stereo not given)	0.08	-0.09
CC1CCCC(C)N1C(=O)Nc1cccc(Cl)c1 (stereo not given)	0.41	1.02
CCOc1ccc(NC(=O)c2cccnc2Cl)c([N+](=O)[O-])c1	0.95	-0.84
Cc1ccc(C(c2nnnn2CC2CCCO2)N2CCN(C)CC2)cc1 (stereo not given)	0.14	-0.42
Cc1nnc(SCCN2C(=O)c3ccccc3C2=O)nc1C	0.4	3.54
CCc1cccc(CC)c1NC(=S)Nc1ccccc1	0.22	-2.87
Cc1cc(C)n(Cc2n[nH]c(=S)n2Cc2ccccc2)n1	0.42	1.6
Cc1nn(C)c(C)c1NC(=O)c1ccc(Br)o1	0.36	1.08
O=C(Nc1ccc2c(c1)OCCO2)c1cncc(Br)c1	0.79	0.04
Cc1cc2ncn(-c3ncccc3[N+](=O)[O-])c2cc1C	0.25	0.7
CCN(CC)S(=O)(=O)c1ccc(C)c(C)c1	1.67	-0.69

Exported with the structure last: entries from further up.
KCNQ2 enhance | KCNQ2 enhance baseline | Structure
0.14 | -0.42 | Cc1ccc(C(c2nnnn2CC2CCCO2)N2CCN(C)CC2)cc1 (stereo not given)
0.4 | 3.54 | Cc1nnc(SCCN2C(=O)c3ccccc3C2=O)nc1C
0.22 | -2.87 | CCc1cccc(CC)c1NC(=S)Nc1ccccc1
0.42 | 1.6 | Cc1cc(C)n(Cc2n[nH]c(=S)n2Cc2ccccc2)n1

Screening results: PubChem BioAssay, Johns Hopkins Ion Channel Center
